Screening data deposited in PubChem by several laboratories.
RanGTP-Impb inh: disruptors of Ran-importin-beta complex formation – biochemical, FRET, CFP-Ran, YFP-importin-beta, homogeneous, primary screen; hit rate 1.1% among 300,000; cell-free CFP-Ran/YFP-importin-beta FRET ratio; inhibition, % (test concentration not listed); AID 2216;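 active means most replicates above 15%; inconclusive means exactly half above 15%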;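 further: 0% = DMSO wells and 100% = Ran loaded with GDP instead of GTP; wells of about 40 µL received 100 nL stock; the first replicate is given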
HNF4A DNA FP: change in binding of human HNF4 alpha to DNA. P41235. HNF4a-FITC DNA binding, fluorescence polarization, 1 h. activity change, % at 10 µM. hit rate 0.3% among 360,000. AID 1224865; in the data active means activity change above about 30%, passing the limit was not always enough;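 further: controls were the assay level and a saturating level of protein; the project sought stronger binding though the title names inhibitors; some compounds called inactive have numbers as strong as hits; positive values seem to mean higher polarization but the record does not say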
Vif A3G: inhibitors of Vif binding to APOBEC3G peptide, primary screen, biochemical, TR-FRET, GST-Vif 1-94, biotin-A3G peptide, dose response retest (AID 1117319); TR-FRET GST-Vif / biotin-A3G peptide binding; higher % means a stronger effect; test concentration not given here; strong numbers were not always called active; one-dose inhibition, %; IC50 in µM for titrated hits; hit rate 0.57% among 260,000;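 active means above the screen mean plus three standard deviations and confirmed in dose response; inconclusive means results disagree or hit not tested in dose response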;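 further: Vif residues 1-94 fused to GST binding biotinylated APOBEC3G peptide 110-148; 0% = full assay without inhibitor and 100% = GST in place of GST-Vif; retest series ran down from 100 µM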
Ecoli growth: blocks Escherichia coli growth; OD600, 23 h; active compounds read low; OD600 absorbance (test concentration not listed); hit rate 0.21% among 330,000; AID 1053175;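 active means OD600 absorbance below the run mean of sample wells minus 3.6 SD, in any replicate, cut at about 0.56 in these data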;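 further: stock transfer was 300 nL into about 60 µL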
UCH37 DUB inh: inhibitors of human deubiquitinating enzyme UCH37; inhibition, % (no concentration beside the values); purified proteasome/UCH37, Ub-AMC cleavage fluorescence; hit rate 0.33% among 330,000;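 active means mean of two replicates above 20%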;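 further: 0% = compound-free wells with enzyme and 100% = wells lacking proteasome; stock transfer was 100 nL into about 20 µL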
Target sequence (Q9Y5K5 whole entry, looked up): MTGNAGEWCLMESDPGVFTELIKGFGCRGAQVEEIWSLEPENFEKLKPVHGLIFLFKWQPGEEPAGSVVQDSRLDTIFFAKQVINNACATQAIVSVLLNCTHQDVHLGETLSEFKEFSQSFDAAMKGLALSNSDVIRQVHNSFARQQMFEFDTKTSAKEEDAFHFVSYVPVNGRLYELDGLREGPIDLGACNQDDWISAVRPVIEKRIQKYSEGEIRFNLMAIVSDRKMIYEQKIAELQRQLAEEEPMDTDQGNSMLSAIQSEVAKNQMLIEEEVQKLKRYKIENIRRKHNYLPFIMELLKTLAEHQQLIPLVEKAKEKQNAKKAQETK
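Test system – human UCH37 enzyme supplied as purified proteasome complex · Incubation – 30 min preincubation with enzyme, 25 min cleavage at room temperature · Detection – AMC fluorescence from Ub-AMC cleavage, excitation 355 nm, emission 460 nm · Benchmarks – no-proteasome wells (full inhibition) and compound-free wells (no inhibition)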
FGF22 binding: binders of recombinant human FGF22 by thermal shift. Q9HCT0. hit rate 1.5% among 340,000. calls only at 9.99 µM. AID 651658. SYPRO orange fluorescence; percent of sucrose octasulfate shift, DMSO zero;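 active means melting point raised past a set limit in the mean and every replicate; inconclusive means no clear call; three in four hits are not shown here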
Target sequence (Q9HCT0 whole entry, looked up): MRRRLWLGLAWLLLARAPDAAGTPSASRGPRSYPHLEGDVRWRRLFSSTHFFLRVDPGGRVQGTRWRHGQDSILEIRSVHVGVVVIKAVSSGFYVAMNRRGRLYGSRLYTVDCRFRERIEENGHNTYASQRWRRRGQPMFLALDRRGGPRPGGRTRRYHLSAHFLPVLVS
AF4-AF9 inh: inhibitors of human MLL-AF4/AF9 interaction. AID 651704. hit rate 0.47% among 350,000. P42568. inhibition, % at 10 µM. AlphaScreen, biotin-AF4 peptide binding to FLAG-AF9;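 active means every replicate reaching a set inhibition limit, whatever the replicate mean, cut at about 25% in these data; inconclusive means mean inhibition reaches that limit but some replicates miss it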;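 further: 0% = plate neutral control median and 100% = total signal loss; the record names both 10 and 1 µM as test concentration; the first replicate is given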
Target sequence (P42568 whole entry, looked up): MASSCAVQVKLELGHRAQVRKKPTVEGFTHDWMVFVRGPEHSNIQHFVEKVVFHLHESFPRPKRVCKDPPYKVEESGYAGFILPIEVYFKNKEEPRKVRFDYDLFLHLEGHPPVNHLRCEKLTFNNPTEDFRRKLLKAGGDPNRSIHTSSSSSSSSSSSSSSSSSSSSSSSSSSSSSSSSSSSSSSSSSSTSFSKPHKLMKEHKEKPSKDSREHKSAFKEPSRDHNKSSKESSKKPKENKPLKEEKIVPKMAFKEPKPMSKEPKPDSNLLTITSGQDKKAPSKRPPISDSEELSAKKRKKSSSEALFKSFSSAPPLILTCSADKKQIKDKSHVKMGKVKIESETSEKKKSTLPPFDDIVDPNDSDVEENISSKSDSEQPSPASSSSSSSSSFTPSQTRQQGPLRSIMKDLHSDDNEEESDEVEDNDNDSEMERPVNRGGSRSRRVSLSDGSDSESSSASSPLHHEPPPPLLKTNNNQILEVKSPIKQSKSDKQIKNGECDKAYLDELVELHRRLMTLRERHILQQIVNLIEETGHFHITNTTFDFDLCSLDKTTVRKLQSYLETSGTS
Numbers without * were called inactive; i = inactive; ? = inconclusive; . = no result given. These rows are one share of the data; count on the stated rates, not on these rows.

Each structure is followed by: RanGTP-Impb inh | HNF4A DNA FP | Vif A3G | Ecoli growth | UCH37 DUB inh | FGF22 binding | AF4-AF9 inh
COc1cc2c(cc1OC)CN(c1ccc([N+](=O)[O-])cc1Cl)CC2
 : -2.4 | 1.8 | 9.6% | 0.717 | 5.9 | i | 15.1
CCCCCC(=O)Nc1ccc(C(=O)COC(=O)Cn2cnc3c2c(=O)n(C)c(=O)n3C)cc1
 : 1.3 | -0.3 | -10.3% | 0.638 | 1.1 | i | -3.8
Cc1cc(C)cc(C(=O)N2CCC3(CC2)NCCc2[nH]cnc23)c1
 : 3.0 | -4.0 | . | 0.675 | 1.4 | i | -0.5
Cc1cccc(-n2cnc3cc([N+](=O)[O-])ccc32)c1
 : 2.2 | 5.4 | 1.8% | 0.634 | 3.4 | i | 0.7
CCn1c(CCCNC(=O)c2cccs2)nc2ccccc21
 : 3.6 | -1.3 | -2.3% | 0.725 | 4.4 | i | 1.1
O=C(CO/N=C/c1ccccc1OC(F)F)NC1CCCC1
 : 1.7 | 1.9 | . | . | . | i | 1.1
CCN(CC)CCOC(=O)c1ccc([N+](=O)[O-])cc1
 : 4.2 | 4.6 | 19.9% | 0.684 | 2.8 | i | 0.6
COC(=O)c1ccc(S(=O)(=O)NCc2ccc(S(N)(=O)=O)cc2)n1C
 : -0.4 | 3.4 | . | 0.67 | 0.6 | i | -0.6
COc1ccc(CCNC(=O)COC(=O)/C=C/c2cccs2)cc1OC
 : -1.4 | -1.4 | 2.7% | 0.697 | 8.8 | i | -0.8
CCC(C)[C@H](NC(=O)NC(C)C)C(=O)O (stereo partly specified)
 : -1.7 | -1.9 | 7.7% | . | 1.5 | . | .
C/C(=N/NC(=O)CSc1nc2ccccc2n1C)c1ccc(O)cc1
 : 0.5 | -2.2 | -4.5% | . | . | i | 0.2
CCN(CC(=O)Nc1ccccc1OC)C(=O)Cn1cnc2ccccc2c1=O
 : 2.3 | 3.6 | 22.2% | 0.69 | -1.8 | . | .
CN(C(=O)c1cccc(NC(=O)Cc2cccc(NC(=O)C3CCCN(C(=O)C4CC4)C3)c2)c1)C1CC1 (stereo unspecified)
 : . | -4.3 | . | 0.709 | -1.3 | i | -5.8
CC(C)C(=O)Nc1ccc(Cl)cc1-c1nc2ccccc2[nH]c1=O
 : 3.0 | -17.5 | 4.1% | 0.722 | 0.4 | i | -4.0
Cc1cc(NC(=O)C(=O)c2cn(C)c3ccccc23)no1
 : 2.1 | 1.2 | -3.5% | 0.677 | 0.2 | i | -2.0
Cc1ccc(NC(=O)COC(=O)C2=NN(c3ccccc3)C(=O)CC2)c(Br)c1
 : . | 2.3 | . | 0.695 | 0.5 | i | 2.1
Cc1c(C(=O)Nc2c(C)n(C)n(-c3ccccc3)c2=O)oc2ccc(Cl)cc12
 : -1.1 | 0.2 | . | 0.662 | 0.4 | i | -4.7
COC(=O)CC1=NN(c2nc(C)cc(C)n2)C(=O)C1
 : 3.7 | -2.8 | 2.0% | 0.712 | 4.2 | i | 0.5
COc1ccc(OC)c(S(=O)(=O)N(C)CC(=O)Nc2ccc3c(c2)OCCO3)c1
 : 3.6 | -0.1 | 2.4% | 0.727 | 2.7 | . | .
COC(=O)Nc1ncc(CN2CCC(c3ccccc3)CC2)s1
 : -4.9 | -2.4 | . | 0.708 | 5.3 | . | .
O=C(CSc1nnc(-c2ccccc2F)o1)N1CCNC1=O
 : . | -3.0 | -0.9% | 0.597 | 0.6 | i | -0.2
Cc1ccc(-c2cccc(NC(=O)C3C(C(=O)O)[C@@H]4C=C[C@H]3C4)c2)o1 (stereo partly specified)
 : ? | 10.0 | ? | . | 2.8 | . | .
CC1CN(Cc2ccccc2)c2nc3c(c(=O)n(CC(N)=O)c(=O)n3C)n2C1 (stereo unspecified)
 : 0.4 | -2.9 | . | 0.656 | 6.5 | i | -3.0
O=c1cc(CSc2ccccc2)nc(-c2ccncc2)[nH]1
 : 3.0 | -3.4 | -4.4% | 0.628 | 0.4 | i | -3.2
CCOc1ccc(C(=O)N2CCc3ccccc32)cc1OCC
 : -0.9 | 0.3 | . | 0.671 | -1.1 | i | 1.7
CCOc1ccccc1-n1nnnc1SCC(=O)NC(=O)Cc1ccccc1
 : . | 3.8 | -6.1% | 0.71 | -1.5 | i | -2.3
COc1ccc(C(CNC(=O)c2cccc3cccnc23)N(C)C)cc1 (stereo unspecified)
 : 4.2 | -3.3 | . | 0.667 | 0.2 | i | -0.4
Cc1ccc(-n2nnnc2SCC(=O)NCC2CCCO2)cc1C (stereo unspecified)
 : . | 4.1 | -5.6% | 0.63 | 1.6 | i | -2.6
Cc1nc2ccc(S(=O)(=O)NC(C(=O)NCc3ccc4c(c3)OCO4)C(C)C)cc2s1 (stereo unspecified)
 : -0.4 | 4.5 | 2.1% | 0.709 | 5.4 | i | 0.4
O=C(CN1CCCCC1)Nc1nc(-c2ccc(Cl)cc2)cs1
 : 1.4 | 1.3 | -11.0% | 0.674 | 0.3 | i | -1.7
O=C(N1CCOCC1)N1CCC(NC(=O)C23CC4CC(CC(C4)C2)C3)CC1
 : 4.7 | 0.3 | -4.5% | 0.672 | 0.5 | . | .
CC(C)(C)c1ccc(C(=O)N2CCN(CCNC(=O)C(=O)NCc3ccccc3)CC2)cc1
 : 0.2 | 1.7 | ? | 0.625 | 2.4 | i | -3.4
O=C(NCCc1ccc(F)cc1)c1ccc(NS(=O)(=O)c2ccc3[nH]c(=O)[nH]c3c2)cc1
 : ? | 2.2 | 0.7% | 0.619 | 1.4 | i | 0.7
O=c1ccn([C@@H]2O[C@H](CNCC3=Cc4cc(O)ccc4OC3)[C@@H](O)[C@H]2O)c(=O)[nH]1
 : . | 1.2 | . | . | . | i | -2.2
Clc1ccc2[nH]cc(-c3nnnn3-c3ccccc3)c2c1
 : ? | 0.3 | 3.1% | 0.641 | -2.2 | . | .
COc1ccc(N2CC(C(=O)OC(C)C(=O)c3ccccc3)CC2=O)cc1 (stereo unspecified)
 : 1.0 | -5.6 | -2.8% | 0.691 | 3.0 | i | -1.1
CCn1c(COc2cccc(C)c2)nnc1SCC(=O)NC1CCCC1
 : 3.0 | -0.6 | . | 0.638 | 2.0 | i | 1.0
C[C@H]1CC[C@]2(O[C@@H](CCO)C[C@H](O)[C@H]2O)O1
 : 4.6 | -1.6 | . | . | -2.0 | i | -7.1
O=C(c1ccccc1)N1N=C(c2ccccc2)CC1c1ccccc1[N+](=O)[O-] (stereo unspecified)
 : -1.8 | -0.2 | . | 0.707 | 1.0 | . | .
C/C(=N\O)c1ccc2c(c1)CC(C)O2 (stereo unspecified)
 : -5.7 | -2.9 | -6.0% | . | . | i | -5.7
CC(=O)NNc1cc(C)nc(NS(=O)(=O)c2ccc(C)cc2)n1
 : 2.3 | 1.4 | . | 0.679 | 2.0 | i | 0.1
CCOc1ccc2nc(N3C(=O)C(O)=C(C(=O)c4ccco4)C3c3ccco3)sc2c1 (stereo unspecified)
 : . | 0.2 | 7.3% | 0.651 | 6.2 | i | 4.0
O=[N+]([O-])c1cccc(N=NN(CCO)c2cccc([N+](=O)[O-])c2)c1
 : 0.6 | -1.7 | 13.7% | 0.665 | 5.2 | . | .
COCCSc1ccccc1C(=O)N1CCN(c2ccccc2)CC1
 : -1.6 | 0.7 | 2.6% | 0.64 | 0.9 | i | -0.6
O=C(COC(=O)c1cccc(S(=O)(=O)N2CCCCC2)c1)NCc1cccc(Cl)c1
 : . | 0.7 | 12.7% | . | . | i | 3.4
COc1cc(C(=O)NCC(c2ccc(F)cc2)N2CCOCC2)ccc1OCc1ccccc1Cl (stereo unspecified)
 : . | -1.7 | -3.1% | 0.725 | 3.5 | i | -5.8
O=C(NC1CCCCC1)OC1CC2CC1[C@H]1CCCCN1C2=O (stereo partly specified)
 : . | -0.9 | . | . | . | i | -5.0
CCC(C)c1ccccc1NC(=O)COC(=O)c1ccc(C)c(NC(=O)c2ccco2)c1 (stereo unspecified)
 : -0.9 | 4.0 | 0.8% | 0.718 | -0.5 | . | .
COc1ccc(/C(C)=N/NC(=O)CNC(=O)c2cccnc2)cc1
 : -3.3 | 2.9 | -3.6% | . | . | i | 1.8
Cc1cc(C)c2c(CC(=O)N(CCC#N)Cc3cccnc3)coc2c1
 : -3.1 | 0.7 | 31.1% | 0.712 | . | . | .
O=C(CC1SC(=O)N(Cc2ccccc2)C1=O)Nc1nccs1 (stereo unspecified)
 : 3.4 | 0.3 | 5.8% | . | . | i | 1.1
CC(C)OCCCNC(=O)[C@H]1N2C(=O)c3ccccc3C2SC1(C)C (stereo partly specified)
 : 3.3 | -2.4 | 5.9% | 0.658 | 0.5 | i | 2.5
O=C(NNC(=S)Nc1ccccc1Cl)c1ccccc1Br
 : 1.2 | -4.7 | . | 0.689 | 4.3 | i | -0.1
C=C(C)C(=O)Nc1cccc(C2=NOC3(C2)C[C@@H](C(N)=O)N(C(=O)/C=C/CC)C3)c1 (stereo partly specified)
 : -1.2 | -57.9 | 3.32µM* | . | 1.4 | i | -43.6
O=C(CCn1c(=S)[nH]c2cc3c(cc2c1=O)OCO3)NCc1ccc(Cl)cc1
 : -0.9 | -3.0 | . | 0.639 | 1.3 | i | -1.3
COc1ccc(CNC(=S)NC2CCCCC2)cc1
 : -0.3 | -1.6 | -12.6% | 0.748 | 0.5 | i | 1.3
COc1ccc(-c2nnc(SCC#CCO)o2)cc1OC
 : -3.4 | 1.6 | 2.0% | 0.659 | 0.0 | . | .
COC(=O)c1sccc1NC(=S)Nc1cccc(F)c1
 : 1.9 | 1.6 | -1.5% | 0.673 | 6.1 | i | -1.9
CC1=NC(C)Cc2ccccc21 (stereo unspecified)
 : 7.8 | 0.9 | 1.2% | 0.777 | 2.8 | . | .
O=C1CCC(=O)N1c1ccc(NCCc2cccc(F)c2)c([N+](=O)[O-])c1
 : -3.6 | 1.8 | 0.0% | 0.698 | 4.1 | i | 9.4

Later entries
Each structure is followed by: RanGTP-Impb inh | HNF4A DNA FP | Vif A3G | Ecoli growth | UCH37 DUB inh | FGF22 binding | AF4-AF9 inh
CC(C)N(c1ccccc1)c1ccc(NC(=O)[C@@H]2O[C@H](CO)[C@H](O)[C@H](O)[C@H]2O)cc1
 : . | -0.7 | . | . | . | i | -3.1
COc1ccc(CCNC(=O)COC(=O)Cc2ccccc2[N+](=O)[O-])cc1
 : . | -1.0 | . | 0.69 | 4.5 | i | -5.9
CCc1ccccc1OCC(=O)NNCC(=O)Nc1cccc(C#N)c1
 : . | 3.2 | -7.2% | 0.633 | 5.2 | i | 1.8
O=C(c1ccccc1)c1ccc2nc[nH]c2c1
 : 1.0 | 4.0 | 3.5% | 0.67 | 4.0 | i | -32.9
COCC(C)NS(=O)(=O)c1ccc(NC(=O)c2ccccn2)cc1 (stereo unspecified)
 : -0.9 | -2.0 | -6.7% | 0.67 | 3.1 | i | -1.1
O=C(COC(=O)c1ccc(F)c(S(=O)(=O)N2CCCCC2)c1)NCc1ccc(F)cc1
 : -2.6 | 2.1 | -1.4% | 0.739 | 5.1 | i | -1.7

Shown as labelled records: entries from further up.
COc1ccc(CCNC(=O)COC(=O)Cc2ccccc2[N+](=O)[O-])cc1
  RanGTP-Impb inh = . | HNF4A DNA FP = -1.0 | Vif A3G = . | Ecoli growth = 0.69 | UCH37 DUB inh = 4.5 | FGF22 binding = i | AF4-AF9 inh = -5.9
CCc1ccccc1OCC(=O)NNCC(=O)Nc1cccc(C#N)c1
  RanGTP-Impb inh = . | HNF4A DNA FP = 3.2 | Vif A3G = -7.2% | Ecoli growth = 0.633 | UCH37 DUB inh = 5.2 | FGF22 binding = i | AF4-AF9 inh = 1.8
O=C(c1ccccc1)c1ccc2nc[nH]c2c1
  RanGTP-Impb inh = 1.0 | HNF4A DNA FP = 4.0 | Vif A3G = 3.5% | Ecoli growth = 0.67 | UCH37 DUB inh = 4.0 | FGF22 binding = i | AF4-AF9 inh = -32.9
